Bioassay records as filed in PubChem.
StopGo FLuc – FMDV 2A StopGo reporter, firefly signal. HEK cells with a luciferase reporter of 2A StopGo recoding. Potency, µM (titrated, usually from 57.5 µM), for inactives: top-dose signal change, negative = less light. actives 0.23% (n = 120,000). AID 1745856; active = well fitted falling curve with a large enough effect; inconclusive = small, poorly fitted or top-dose-only effect; inactive = no such curve, though single readings can be large or run the other way; further: nearly all actives have a fitted effect of over 60% in size; overnight with compound
StopGo RLuc – lowers the Renilla signal of an FMDV 2A StopGo reporter. HEK cells with a luciferase reporter of 2A StopGo recoding. Potency, µM (doses to about 57.5 µM), inactives show at the highest dose signal change, negative = less light. actives 0.32% (n = 120,000); active means well fitted falling curve with a large enough effect; inconclusive means small, poorly fitted or top-dose-only effect; inactive means no such curve, though single readings can be large or run the other way; further: nearly all actives have a fitted effect of over 55% in size; overnight with compound
An asterisk follows results filed as active; ? = inconclusive; & = joins results of further samples; [ ] = dose if it differs, or a comment. On the % scale 0 is the no-effect control and ±100 the full control effect; potency means the concentration at half of the fitted maximal effect.

SMILES | StopGo FLuc | StopGo RLuc
COc1ccc(Cn2c(=O)c3cccnc3n(CC(=O)Nc3c(C)cc(C)cc3C)c2=O)cc1 | -3% | -4%
Cc1nn2c(=O)cc(COC(=O)COc3ccccc3C)nc2s1 | -15% | -5%
Cc1oc2c(c1C(=O)Nc1ccc(F)c(F)c1)C1=NCCN1C=N2 | -5% | 0%
Cc1ccc(NC(=O)CNC(=O)Cn2c(C)cc3ccccc3c2=O)cc1F | -10% | -2%
CCCCN(CCCC)c1cccc(-c2cccc(N(CCCC)CCCC)c2)c1 | -10% | 2%
Cc1nn2c(=O)cc(CSc3n[nH]c(-c4ccccc4)n3)nc2s1 | 44%[activator] | 26%
CCc1cnc2c(c1SCC(=O)NCc1ccccc1Cl)c(=O)n(C)c(=O)n2C | -5% | -5%
CC(C)CNC(=O)c1csc2c1CCC(C)C2 (stereo not given) | 175%[activator] | 18%
COc1cccc(CN2C(=O)N(c3ccc(C)cc3C)S(=O)(=O)c3ccccc32)c1 | -3% | 10%
Cc1cc(NC(=O)C(OC(=O)c2ccc3c(c2)NC(=O)CS3)c2ccccc2)no1 (stereo not given) | 26% | 81%[activator]
O=C(Nc1cccc2ncccc12)c1ccc(Oc2ccccc2)cc1 | ? | ?
CC(C)NC(=O)Nc1cccc(C(=O)Nc2cccc(Cl)c2)c1 | 120%[activator] | 29%
Cc1ccc(-c2nc(CS(=O)(=O)CC(=O)Nc3ccc(C)cc3C)c(C)o2)cc1 | 10% | 9%
Cc1cc(C(=O)Nc2cccc(-c3nc4ccccc4o3)c2)ccc1[N+](=O)[O-] | 9% | 1%
Cc1cc(C)n(C(C)CC(=O)Nc2ccc(C)c(F)c2)n1 (stereo not given) | -2% | -1%

Reprinted from the part before: 2 compounds, followed by the next part.
SMILES | StopGo FLuc | StopGo RLuc
Cc1cc(C(=O)Nc2cccc(-c3nc4ccccc4o3)c2)ccc1[N+](=O)[O-] | 9% | 1%
Cc1cc(C)n(C(C)CC(=O)Nc2ccc(C)c(F)c2)n1 (stereo not given) | -2% | -1%
O=C(Nc1ccc(S(=O)(=O)N2CCCCC2c2cccnc2)cc1)c1ccc(Br)cc1 (stereo not given) | 25µM* | ?
Cc1ccc(NC(=O)c2csc3c2CCCCC3)c(C)c1 | 199%[activator] | 23%
CC(C)(C)SCC(=O)Nc1ccc2c(c1)CCC2 | 114%[activator] | -1%
Cc1cc(=O)oc2cc(OCC(=O)NCCN3CCOCC3)c(Cl)cc12 | -2% | 6%
CCC(=O)Nc1sc2c(c1C#N)CCC(C)C2 (stereo not given) | 134%[activator] | 19%
Cc1ccc(CNC(=O)CCCCCn2c(=O)c3sccc3n(CC(=O)C(C)(C)C)c2=O)cc1 | -10% | 32%[activator]
COc1ccc(C(=O)NCCc2sc(-c3cccc(F)c3)nc2C)cc1 | 3% | 19%
CCN(CC)c1cc(C)c2cc(NC(=O)c3ccc(F)cc3Cl)ccc2n1 | 23% | 22%
COc1cc(/C=C(/C#N)C(=O)c2c[nH]c3cccc(C)c23)cc(OC)c1 | 22% | 147%[activator]
CCOC(=O)c1noc2ncnc(N(CCC(=O)OC)c3ccccc3)c12 | 35%[activator] | 20%
NCc1cccc(OC(F)F)c1 | -10% | 1%
O=C(O)CCC(NC(=O)Cc1ccc2ccccc2c1)C(=O)O (stereo not given) | 5% | -16%
COC(=O)C1CN(Cc2cn(Cc3ccc(OC)cc3)nn2)CCS(=O)(=O)N1Cc1ccc(OC)cc1 (stereo not given) | 6% | -4%
CCOc1ccc(CNC(=O)Cn2nc(C)c3c(C)n(-c4ccc(C)cc4)nc3c2=O)cc1 | -8%&-15% | 2%&-5%
COc1ccc(C(NC(=O)CC(C)(C)C)c2ccccc2)cc1 (stereo not given) | -8% | 15%
CCc1ccc(C(=O)c2c(N)c(-c3nc(-c4ccc5c(c4)OCO5)cs3)c3ccccn23)cc1 | -6% | -8%
COC(=O)C1C(=O)CC(C)(O)C(C(=O)OC)C1c1ccc(OC)cc1 (stereo not given) | -9% | -1%
COc1cccc(N2C(=O)c3ccccc3NC2c2cn(C)c(=O)n(C)c2=O)c1 (stereo not given) | 102%[activator] | 4%
Cc1ccc(NC(=O)CC2Sc3ccc(C(F)(F)F)cc3NC2=O)cc1 (stereo not given) | -21% | -15%
Cc1oc(-c2ccccc2)nc1CC(=O)NCC(C)N1CCOCC1 (stereo not given) | 6% | -4%
COC(=O)C(C)(C)NC(=O)c1cccc(CS(C)(=O)=O)c1 | -2% | -3%
O=C1CN(c2ccccc2)C(=O)N1Cc1ncc(-c2ccccc2)o1 | 144%[activator] | -9%
Cc1nn(Cc2noc(C(=O)NCc3ccc(F)cc3)n2)c(C)c1Br | 3% | 12%
Cc1cc(C)cc(N(C(=O)C23CC4CC(CC(C4)C2)C3)C2C=CS(=O)(=O)C2)c1 (stereo not given) | 4% | -5%
Cc1cc(C)c(NC(=O)Cc2csc(C)n2)c(Cl)c1 | 0% | -11%
COc1cccc2sc(=NC(=O)c3ccc(S(=O)(=O)N4CCCCC4)cc3)n(C)c12 | 11% | -4%
c1ccc2c(c1)ccc1n[nH]nc12 | 2% | 21%
CCCCCn1c(N2CCN(Cc3ccccc3C)CC2)nc2c1c(=O)[nH]c(=O)n2C | -10% | -18%
O=C(/C=C/c1ccccc1O)c1ccccc1Cl | 0% | 117%[activator]
Cc1cccc(OCC(=O)Nc2ccc3oc(-c4ccncc4)nc3c2)c1 | 12% | -6%
CCOc1ccc(NC(=O)CC2C(=O)Nc3ccccc3N2C(=O)c2ccc(C(C)(C)C)cc2)cc1 (stereo not given) | -11% | -10%
COc1ccc(OC)c(C2CC(=O)Nc3c2c(=O)nc(SC)n3C)c1 (stereo not given) | -5% | -6%
COc1ccc(CNc2nc3c(-c4cccc(C)c4)nnn3c3ccccc23)cc1 | 4% | -10%
Cc1nnc(N2CCC(C(=O)N3CCCCC3)CC2)c2nn(-c3ccc(Cl)cc3)c(C)c12 | -7% | 3%
Cc1ccc(Nc2nc(-c3cc4cc([N+](=O)[O-])ccc4oc3=O)cs2)cc1 | -7% | -17%
CCOC(=O)c1ncoc1-c1ccccc1C(=O)NCc1cccc(Cl)c1 | -4% | 3%
Cc1nc(NCc2ccco2)sc1C(=O)NCCC(C)C | 0% | 21%
NS(=O)(=O)c1ccc(NC(c2ccccc2)c2ccccc2)c([N+](=O)[O-])c1 | 15% | 7%
Cc1ncc([N+](=O)[O-])n1CC(O)CCl (stereo not given) | 8% | 27%
Cc1ccccc1-c1nc2scc(CCNC(=O)C(=O)Nc3ccc(F)cc3F)n2n1 | -2% | 7%
CCN(CC)S(=O)(=O)c1ccc2c(c1)c(=O)c(C(=O)NCc1ccccc1Cl)cn2C | -10% | -10%
Cc1ccc(-c2noc(CNC(=O)c3ccc(C(C)(C)C)cc3)n2)cc1 | -20% | -20%
Cc1ccc(C)c(N2CCN(C(=O)C3CCC(CNS(=O)(=O)c4ccc(Br)s4)CC3)CC2)c1 (stereo not given) | 1% | -10%
O=C(COc1cc(O)c2c(=O)cc(-c3ccccc3)oc2c1)NCCCO | 8% | -7%
CCOc1ccc(NC(=O)N2CC=C(c3c[nH]c4ccccc34)CC2)cc1 | 69%[activator] | 10%
CCCCNC(=O)CSc1nc2cc3c(cc2c(=O)n1CCCCCC(=O)NCc1ccc2c(c1)OCO2)OCO3 | -13% | -6%
O=C(c1ccccc1O)N1CCN(C(=O)c2cc(=O)[nH]c3ccccc23)CC1 | -2% | -14%
N#CCc1c(C#N)c(N)nc(NCCc2c[nH]c3ccccc23)c1C#N | 10% | -21%
CN(C)CCCn1cnc2c1c(=O)[nH]c(=O)n2C | 8% | 0%
CC(C)Oc1ccc(CNC(=O)C2CCN(Cc3cc4ccccc4n3Cc3ccccc3)CC2)cc1 | -9% | -19%
Clc1ccc(NC2(c3nnnn3-c3ccccc3)CCCC2)cc1 | -8% | 88%[activator]
Cc1ccc(S(=O)(=O)N2CCN(CCNC(=O)C(=O)Nc3ccc(F)cc3)CC2)cc1 | -7% | -16%
COc1ccc(-n2c(=O)c3c4c(sc3n3c(SC)nnc23)COC(C(C)C)C4)cc1 (stereo not given) | 6% | 1%
CCN(CC)C(=O)c1sc2c(c1C)c(=O)n(-c1ccc(C)c(C)c1)c(=O)n2Cc1cc(=O)n2c(C)cccc2n1 | ? | ?
CN1CCN(C(=O)Cn2c(=O)c3c(ncn3Cc3ccccc3)n(Cc3ccccc3)c2=O)CC1 | 7% | 2%
Cc1cccc(CN2C(=O)c3ccccc3S(=O)(=O)c3ccc(C(=O)N4CCN(c5cc(C)ccc5C)CC4)cc32)c1 | -1% | 9%
COc1ccc(-n2nc(C(=O)N3CCN(c4cccc(C)c4)C(C)C3)c3c4ccccc4n(C)c3c2=O)cc1 (stereo not given) | -17% | -12%
Cc1ccc(NC(=O)c2cnn3c(C(F)F)cc(-c4ccccc4)nc23)cc1F | -11% | -7%
COC(=O)CCCNC(=O)CN(C)Cc1ccccc1 | -1% | 9%
Nc1nccnc1C(=O)NCC(=O)Nc1ccc(F)c(F)c1 | ? | -7%[1.06 µM]

Sorted by heavy-atom count (lowest first): 21 of the compounds above.
SMILES | StopGo FLuc | StopGo RLuc
Cc1ncc([N+](=O)[O-])n1CC(O)CCl (stereo not given) | 8% | 27%
CN(C)CCCn1cnc2c1c(=O)[nH]c(=O)n2C | 8% | 0%
COC(=O)CCCNC(=O)CN(C)Cc1ccccc1 | -1% | 9%
Cc1nc(NCc2ccco2)sc1C(=O)NCCC(C)C | 0% | 21%
Nc1nccnc1C(=O)NCC(=O)Nc1ccc(F)c(F)c1 | ? | -7%[1.06 µM]
Clc1ccc(NC2(c3nnnn3-c3ccccc3)CCCC2)cc1 | -8% | 88%[activator]
COc1ccc(OC)c(C2CC(=O)Nc3c2c(=O)nc(SC)n3C)c1 (stereo not given) | -5% | -6%
Cc1ccc(-c2noc(CNC(=O)c3ccc(C(C)(C)C)cc3)n2)cc1 | -20% | -20%
Cc1ccc(Nc2nc(-c3cc4cc([N+](=O)[O-])ccc4oc3=O)cs2)cc1 | -7% | -17%
O=C(c1ccccc1O)N1CCN(C(=O)c2cc(=O)[nH]c3ccccc23)CC1 | -2% | -14%
Cc1ccc(NC(=O)c2cnn3c(C(F)F)cc(-c4ccccc4)nc23)cc1F | -11% | -7%
COc1ccc(-n2c(=O)c3c4c(sc3n3c(SC)nnc23)COC(C(C)C)C4)cc1 (stereo not given) | 6% | 1%
Cc1ccc(S(=O)(=O)N2CCN(CCNC(=O)C(=O)Nc3ccc(F)cc3)CC2)cc1 | -7% | -16%
Cc1nnc(N2CCC(C(=O)N3CCCCC3)CC2)c2nn(-c3ccc(Cl)cc3)c(C)c12 | -7% | 3%
Cc1ccc(C)c(N2CCN(C(=O)C3CCC(CNS(=O)(=O)c4ccc(Br)s4)CC3)CC2)c1 (stereo not given) | 1% | -10%
CN1CCN(C(=O)Cn2c(=O)c3c(ncn3Cc3ccccc3)n(Cc3ccccc3)c2=O)CC1 | 7% | 2%
CC(C)Oc1ccc(CNC(=O)C2CCN(Cc3cc4ccccc4n3Cc3ccccc3)CC2)cc1 | -9% | -19%
COc1ccc(-n2nc(C(=O)N3CCN(c4cccc(C)c4)C(C)C3)c3c4ccccc4n(C)c3c2=O)cc1 (stereo not given) | -17% | -12%
CCN(CC)C(=O)c1sc2c(c1C)c(=O)n(-c1ccc(C)c(C)c1)c(=O)n2Cc1cc(=O)n2c(C)cccc2n1 | ? | ?
CCCCNC(=O)CSc1nc2cc3c(cc2c(=O)n1CCCCCC(=O)NCc1ccc2c(c1)OCO2)OCO3 | -13% | -6%
Cc1cccc(CN2C(=O)c3ccccc3S(=O)(=O)c3ccc(C(=O)N4CCN(c5cc(C)ccc5C)CC4)cc32)c1 | -1% | 9%

Continued.
SMILES | StopGo FLuc | StopGo RLuc
CNC(=O)C1CCC(Cn2c(=O)c3sccc3n(CC(=O)NCc3ccc(OC)cc3)c2=O)CC1 (stereo not given) | 20% | 16%
COCC(C)NS(=O)(=O)c1ccc(C)c(C)c1 (stereo not given) | -2% | 74%[activator]
COc1ccc(Cn2c(C(=O)O)c(CNCCc3ccco3)c3ccc(C)cc32)cc1 | -16% | 89%[activator]
O=C(Nc1cccc2cccnc12)c1cc(Cl)cc(Cl)c1 | 2% | -11%
CCC(C)(C)NC(=O)c1ccc2nc(C)c(C)nc2c1 | 228%[activator] | 37%[activator]
COc1ccc(C(=O)Nc2ccc3nc(SCc4ccc(C)cc4)sc3c2)cc1 | 9% | 4%
Nc1nc(N2CCOCC2)nc2c1C(C(=O)Nc1ccc(Cl)cc1)CC(=O)N2 (stereo not given) | 9% | -3%
CC(C)c1ccc(NC(=O)c2ccc(NC(=O)CCS(=O)(=O)c3cccs3)cc2)cc1 | 11% | -13%
Cc1oc(-c2cccc(Cl)c2)nc1CS(=O)(=O)CC(=O)NC(C)c1ccccc1 (stereo not given) | 5% | 9%
COC(=O)Cn1c(C2CC(=O)N(c3c(C)cccc3C)C2)nc2ccccc21 (stereo not given) | 24% | 0%
